From PubChem
RecA intein inh: blocks M. tuberculosis RecA intein splicing | P9WHJ3 | actives 0.75% (n = 290,000) | cell-free RecA intein splicing, fluorescence | inhibition, %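 (about 9 µM by stock and volumes)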; in the data active means inhibition above about 30%;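 further: 0% = vehicle wells and 100% = reference inhibitor control wells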
Target sequence (P9WHJ3 whole entry, looked up): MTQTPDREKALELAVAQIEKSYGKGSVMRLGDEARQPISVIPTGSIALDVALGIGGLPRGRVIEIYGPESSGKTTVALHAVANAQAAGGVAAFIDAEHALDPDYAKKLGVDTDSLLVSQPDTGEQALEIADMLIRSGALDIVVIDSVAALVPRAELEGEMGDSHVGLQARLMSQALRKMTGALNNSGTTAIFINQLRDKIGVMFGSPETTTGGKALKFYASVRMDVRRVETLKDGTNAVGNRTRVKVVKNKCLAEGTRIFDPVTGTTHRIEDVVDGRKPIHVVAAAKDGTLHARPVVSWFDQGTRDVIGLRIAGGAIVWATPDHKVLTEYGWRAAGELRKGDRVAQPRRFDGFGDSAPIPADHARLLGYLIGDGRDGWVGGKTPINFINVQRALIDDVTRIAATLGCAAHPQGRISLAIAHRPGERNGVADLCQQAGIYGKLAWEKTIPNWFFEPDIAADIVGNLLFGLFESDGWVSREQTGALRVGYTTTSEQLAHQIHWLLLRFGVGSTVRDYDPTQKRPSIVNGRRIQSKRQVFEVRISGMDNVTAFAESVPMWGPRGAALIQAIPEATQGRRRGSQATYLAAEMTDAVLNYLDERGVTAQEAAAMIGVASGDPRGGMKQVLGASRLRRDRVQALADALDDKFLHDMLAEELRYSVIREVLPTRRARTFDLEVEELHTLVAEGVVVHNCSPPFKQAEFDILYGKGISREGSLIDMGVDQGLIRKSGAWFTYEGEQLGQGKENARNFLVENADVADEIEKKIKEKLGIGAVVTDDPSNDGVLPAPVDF
Arbovirus anti: arbovirus infection inhibition. arbovirus infection cell-based antiviral screen. inhibition, % at 10 µM. actives 0.37% (n = 200,000). AID 1251;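 active means inhibition from about 30%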;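 further: bluetongue infection of BSR cells; cell survival read as ATP light after 72 h; 0% = infected wells without compound and 100% = uninfected wells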
Mtb betalactam: beta-lactam sensitization of Mtb H37Rv | M. tuberculosis H37Rv growth with meropenem, percent inhibition; hits of this screen are not shown here | inhibition, % at 25 µM | actives 0.27% (n = 330,000) | AID 434955;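 active means about 74% or more and at least 40 points above the plate without the antibiotic, then above 30% in a dose series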;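 further: growth measured after seven days incubation then overnight dye step; 0% = bacteria only wells and 100% = bacteria with antibiotic; twin plates without the antibiotic show which effects depend on it; some results filed as inactive read as strong as hits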
YopH PTP inh: inhibitors of Yersinia enterocolitica YopH tyrosine phosphatase; actives 0.16% (n = 140,000); fluorescence Ex485/Em525; inhibition, %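 (about 10 µM by stock and volumes)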;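 active means inhibition of 50% or more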;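 further: controls were vehicle for no effect and minimum signal wells for full effect; inactives centre near -20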
Mtb growth: M. tuberculosis H37Rv growth inhibitors, H37Rv strain (AID 1626). M. tuberculosis H37Rv growth inhibition; higher % means a stronger effect. inhibition, % at 10 µM, or IC50 in µM where a hit was titrated. actives 0.95% (n = 220,000);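 active means confirmed in a dose series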;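 further: bacteria incubated seven days before Alamar blue readout; 0% = bacteria only wells and 100% = bacteria with antibiotic wells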
Arbovirus anti repeat: recorded beside Arbovirus anti, whose call it bears; inhibition, %; measured here: 10K subset replicate screen; many hits read low in the repeat;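 first of two repeat runs on a subset; 0% = infected and 100% = uninfected wells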
An asterisk follows results filed as active; . = no result given. An excerpt. The share of hits here may be higher or lower than overall.

A first look (two entries):
SMILES | RecA intein inh | Arbovirus anti | Mtb betalactam | YopH PTP inh | Mtb growth | others
O=C(NCCCN1CCCCC1)C1CCCN(c2ncnc3c2nc2n3CCCCC2)C1 (stereo unspecified) | -0.3 | . | 3 | . | .
Cc1ccc(C(=O)N2CCN(C(=O)c3ccco3)CC2)cc1NC(=O)c1ccco1 | 0.1 | 3 | 1 | . | -1%

All compounds of this part, previewed entries included:
SMILES | RecA intein inh | Arbovirus anti | Mtb betalactam | YopH PTP inh | Mtb growth | others
O=C(NCCCN1CCCCC1)C1CCCN(c2ncnc3c2nc2n3CCCCC2)C1 (stereo unspecified) | -0.3 | . | 3 | . | .
Cc1ccc(C(=O)N2CCN(C(=O)c3ccco3)CC2)cc1NC(=O)c1ccco1 | 0.1 | 3 | 1 | . | -1%
Cc1ccc(S(=O)(=O)N2CCCCC2CCNC(=O)C(=O)NC2CC2)cc1 (stereo unspecified) | 0.1 | . | -8 | . | .
Cc1cccc(S(=O)(=O)NNC(=O)Cc2cccn2C)c1 | 1.5 | -1 | -1 | . | 3%
CC1C2CC(C(S(=O)(=O)N3CCOCC3)C2=O)C1(C)C (stereo unspecified) | 1.5 | 1 | -6 | -8 | 0%
CNC(=O)C(C)NS(=O)(=O)c1ccc(F)cc1 (stereo unspecified) | -0.1 | 0 | -14 | -21 | -2%
Cc1cc(O)c(C(C[N+](=O)[O-])c2ccc(Cl)cc2Cl)c(=O)o1 (stereo unspecified) | -0.1 | 2 | 68 | -19 | 2%
COc1ccc(NC(=O)CN2CCc3ccccc3C2)cc1OC | -5.1 | 7 | -2 | . | -4%
CS(=O)(=O)C1=NSC2=NC(=O)/C(=C\c3cccn3-c3ccccc3Cl)C(=N)N21 | 0.4 | 51* | 1 | . | -1%
O=C(O)c1ccc(/C=N/NC(=O)C(O)(c2ccccc2)c2ccccc2)cc1 | 0.6 | . | 3 | . | .
Cc1cc([N+](=O)[O-])nn1CC(=O)Nc1ccc(F)cc1 | 3.8 | 0 | -5 | . | 0%
Cc1ccc(S(=O)(=O)NCCN=C(CN2CCOCC2)NS(=O)(=O)c2ccc(C)cc2)cc1 | -0.4 | 9 | -5 | -23 | 0%
CCOc1ccc(NC(=O)CCS(=O)(=O)c2ccc3c(c2)CCCN3C(=O)CC)cc1 | -0.3 | 7 | -14 | -8 | -3%
CC(=O)Nc1cccc(NC(=S)Nc2cccc3ccccc23)c1 | 6.3 | . | 9 | . | .
CCNS(=O)(=O)c1ccc(CCC(=O)NCCC2=CCCCC2)cc1 | -2.8 | 10 | -3 | -2 | 10%
Cc1oc(-c2ccccc2F)nc1CS(=O)CC(=O)NCCN1CCCCC1C (stereo unspecified) | 0.0 | . | 5 | . | .
COCCCNC(=O)C(=O)Nc1cc2c3c(c1)CCC(=O)N3CCC2 | -3.7 | . | 7 | . | .
COc1ccc(S(=O)(=O)NCCSCc2ccco2)cc1C | 2.0 | 7 | -12 | -8 | -5%
COc1cc(OC)c(C#N)c(S(=O)(=O)Cc2ccccc2)c1 | 1.8 | 10 | -5 | -5 | -13%
COc1cccc(NC(=O)CN(C)C(C)C(=O)Nc2ccc(C#N)cc2)c1 (stereo unspecified) | -0.2 | 2 | 1 | . | 12%

Ordered by SMILES length (rising): four of the compounds above.
SMILES | RecA intein inh | Arbovirus anti | Mtb betalactam | YopH PTP inh | Mtb growth | others
CC(=O)Nc1cccc(NC(=S)Nc2cccc3ccccc23)c1 | 6.3 | . | 9 | . | .
O=C(NCCCN1CCCCC1)C1CCCN(c2ncnc3c2nc2n3CCCCC2)C1 (stereo unspecified) | -0.3 | . | 3 | . | .
O=C(O)c1ccc(/C=N/NC(=O)C(O)(c2ccccc2)c2ccccc2)cc1 | 0.6 | . | 3 | . | .
CS(=O)(=O)C1=NSC2=NC(=O)/C(=C\c3cccn3-c3ccccc3Cl)C(=N)N21 | 0.4 | 51* | 1 | . | -1%

Next part:
SMILES | RecA intein inh | Arbovirus anti | Mtb betalactam | YopH PTP inh | Mtb growth | others
CCOc1ccc(NC(=O)Cn2c(=O)oc3cc(Cl)ccc32)cc1 | -5.5 | . | 3 | . | .
O=c1oc2ccccc2c(O)c1/C=C1\C=Nc2ccccc21 | 1.8 | -13 | 100 | -1 | 67%
CCn1cc(CN2CCc3c([nH]c4ccccc34)C2c2cccc(OC)c2)c(C)n1 (stereo unspecified) | -3.0 | 1 | 3 | . | 15%
C=CCOc1cccc(C2NC(=O)c3ccccc3O2)c1 (stereo unspecified) | 0.0 | . | 2 | . | .
CCN(CC)CCNCc1ccc(-c2ccc(Cl)cc2)o1 | 4.1 | -31 | 2 | -23 | -3%
COc1ccc(S(=O)(=O)N2CCN(Cc3ccccc3)CC2)cc1 | 2.0 | 1 | -10 | -40 | 6%
O=C(NCCc1ccc(F)cc1)c1ccc([N+](=O)[O-])cc1 | 5.0 | 1 | 1 | . | 2%
CCOc1cc(/C=C2/C(=O)ON=C2C)ccc1OCc1ccccc1 | 0.1 | -30 | 1 | . | 2%
Cc1ccc(-n2cc(CNC(C)Cc3cnccn3)c(-c3cccc(C)c3)n2)cc1 (stereo unspecified) | -0.5 | -13 | 62 | . | 13%
CC1=C(C(=O)OC2CCCCC2)C(c2ccc(C)o2)C2=C(CCCC2=O)N1 (stereo unspecified) | -2.9 | 9 | -5 | -45 | 0%
CC1(C)Cc2nc3sc4c(OCc5ccccc5)ncnc4c3cc2CO1 | -1.1 | 4 | -6 | -37 | -1%
CC(=O)c1sc(-c2ccc(F)cc2F)nc1C | -1.8 | . | 4 | . | .
O=C(NCc1ccccn1)c1ccc(NC(=O)c2ccco2)cc1 | 1.9 | 2 | -7 | -13 | -5%
COc1cc(NC(=O)CSc2nc3c(C)ccc(C)c3cc2C)c(C(=O)O)cc1OC | 0.6 | 16 | 4 | -22 | -3%
O=C(CCc1ccccc1)Nc1ncn[nH]1 | -11 | -6 | -3 | -19 | 3%
CC(=O)c1c(C(C)=O)c(C)n(Cc2ccc(Cl)cc2)c1C | 4.8 | 8 | -16 | -4 | -2%
Cc1ccc(NCc2nnc(SCC#N)o2)c(C)c1 | 0.7 | -4 | 6 | -13 | -7%
CCC(CC)C(=O)Nc1nnc(S(=O)(=O)N2CCCCCC2)s1 | 0.5 | . | -3 | . | .
Cc1ccc(CSCC(=O)NCc2cccs2)cc1 | 0.2 | 0 | 0 | . | 2%
CCOC(=O)C1(CCCc2ccccc2)CCN(CCCn2cccn2)CC1 | -3.9 | -9 | 1 | . | -3%

2 records picked at random from the list so far:
SMILES | RecA intein inh | Arbovirus anti | Mtb betalactam | YopH PTP inh | Mtb growth | others
CCOc1ccc(NC(=O)Cn2c(=O)oc3cc(Cl)ccc32)cc1 | -5.5 | . | 3 | . | .
CC1=C(C(=O)OC2CCCCC2)C(c2ccc(C)o2)C2=C(CCCC2=O)N1 (stereo unspecified) | -2.9 | 9 | -5 | -45 | 0%

Next section:
SMILES | RecA intein inh | Arbovirus anti | Mtb betalactam | YopH PTP inh | Mtb growth | others
Cc1cc(NC(=O)c2ccc(S(=O)(=O)N3CCCC3)cc2)nc2c1c(=O)oc1ccccc12 | 1.5 | -24 | . | -18 | -1%
CCOc1ccc2c(c1)C(C)=CC(C)(C)N2S(=O)(=O)c1ccc(F)cc1 | 14 | . | 6 | . | .
CCc1cc2cc(C(=O)N3CCN(Cc4ccccc4)CC3)sc2s1 | 9.3 | 3 | 85 | 9 | 22%
CN1CCN(NC(=O)CN2C(=O)/C(=C/c3ccccc3Cl)SC2=S)CC1 | -1.7 | -5 | -5 | -27 | -6%
O=C1CCC/C1=C/Nc1ccc(Cl)cc1 | 0.2 | -7 | 0 | . | 0%
Cc1cccc(CSC2=NCCN2C(=O)c2ccco2)c1 | 0.6 | 2 | -3 | -49 | -4%
COC(=O)c1c(C)oc2ccc(N(C(C)=O)S(=O)(=O)c3ccccc3)cc12 | 1.1 | . | -7 | . | .
O=C(CSc1nncn1-c1ccccc1)Nc1ccc(F)cc1F | -2.2 | . | -1 | . | .
CCOC(=O)CN1NC2(CCCCCC2)NC1=S | 0.3 | . | 0 | . | -1%
COc1ccc(OC)c(S(=O)(=O)Nc2ccc3c(c2)C(=O)OC3)c1 | -0.9 | . | 4 | . | -4%
COc1ccc(N(Cc2ccco2)C(=O)c2ccccc2F)cc1OC | 2.5 | -10 | 0 | -19 | -6%
CCOc1ccc(S(=O)(=O)N2CCC(C(=O)OC(C)C(=O)N(C)C3CCCCC3)CC2)cc1 (stereo unspecified) | 1.7 | . | -10 | . | .
N#C/C(=C\c1ccc2c(c1)OCCO2)C(=O)NC1CCCCC1 | 0.5 | 3 | . | 1 | 3%
CC(C)CNC(=S)N(CCCO)Cc1cc2cc3c(cc2[nH]c1=O)OCCO3 | -4.7 | . | 0 | . | .
COc1ccc(CSC(=N)N)cc1[N+](=O)[O-] | 3.4 | -8 | 41 | -42 | -6%
CCOc1ccc(NC(N)=O)cc1 | 0.7 | 6 | -9 | -51 | 0%
CCOC(=O)c1c(CC(C)C)csc1/N=C/C1C(=O)CC(C)(C)CC1=O | -20 | 0 | -6 | . | -4%
COc1ccc(/C=C2/N=C(SC3CCOC3=O)N(c3cccc(OC)c3)C2=O)cc1 (stereo unspecified) | -0.9 | 28 | -6 | -43 | -5%
Cc1cccnc1Nc1nc(-c2ccc(O)cc2)cs1 | . | -15 | 7 | -12 | 6%
Cc1ccccc1-c1nc2cc(Cl)ccc2o1 | 0.2 | -1 | -6 | -22 | -2%
CSc1nc(=S)n(-c2ccccc2)c(C)c1C(C)=O | 15 | . | 4 | . | .
Cc1cccc(OCC(=O)O/N=C(\N)c2ccccn2)c1 | -1.9 | -3 | 9 | -10 | 2%
C/C(=N\NC(=O)c1ccccc1-n1cccc1)C1CC1 | 2.3 | -8 | -4 | -14 | -8%
O=C(CSc1nnnn1C1CCCCC1)NCc1ccco1 | -0.3 | 0 | -10 | -36 | -12%
CCN(c1cccc(C)c1)S(=O)(=O)c1ccc(OC)c([N+](=O)[O-])c1 | 2.6 | 1 | 3 | . | -8%
COc1ccc(C(=O)NCC(=O)OCC(=O)N2N=C(c3ccc(Cl)cc3)CC2c2ccco2)cc1OC (stereo unspecified) | 14 | -6 | 8 | . | -2%
CNC(=S)N(Cc1cccs1)Cc1cc2cc(OC)ccc2[nH]c1=O | -0.9 | 0 | 1 | -43 | -12%
Cc1nc(SCC(=O)O)c(C#N)c(-c2ccco2)c1C(=O)N(C)C | 0.3 | . | -1 | . | -9%
COc1cccc(CNC(=O)C2CCN(S(=O)(=O)N3CCC(C)CC3)CC2)c1 | -2.1 | . | -9 | . | .
Cc1ccc(C(=O)NCc2occc2C(=O)O)o1 | 0.3 | 12 | 0 | 30 | -3%
O=C(N/N=C/c1coc2ccccc2c1=O)c1ccncc1 | -0.8 | . | 100 | . | .
O=C(CC1S/C(=N/N=C/C=C/c2ccccc2)NC1=O)Nc1ccc(Cl)c(Cl)c1 (stereo unspecified) | 0.8 | -26 | 0 | -6 | 6%
O=C(NCC1CCCO1)/C(=C/c1cn(-c2ccccc2)nc1-c1cccnc1)NC(=O)c1ccccc1 (stereo unspecified) | 0.3 | 1 | -5 | . | -4%
CCC(NC(=O)c1ccccc1NC(=O)c1ccco1)C(=O)O (stereo unspecified) | -1.5 | 0 | -9 | -26 | -77% | Arbovirus anti repeat=7
COC(=O)c1ccc2c(=O)n(Cc3ccco3)c(SCC(=O)Nc3ccc(C)c(Cl)c3)nc2c1 | -1.0 | -31 | 37 | 0 | -3%
COc1cccc(C(=O)Nc2ccc(Oc3cccc(C(F)(F)F)c3)nc2)c1 | 2.6 | . | 53 | . | 21%
